VACV E9 pol inh: blocks vaccinia virus processive DNA synthesis; 46,000 compounds, 0.94% hits; in vitro processive DNA synthesis, absorbance read-out; active compounds read low; some inactives read as strong as hits; normalized absorbance, % (concentration not given with the values); AID 493162;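 active = replicate mean up to 90% and picked by the depositor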;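 note: 100% = median of the test wells of a plate; 100 nL library stock went into each well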
* hit, by the source's call. Not all compounds are listed; the hit share may differ from the screen's.

SMILES	VACV E9 pol inh
Cc1cc(=O)oc2ccc(OCC(=O)N3CCOCC3)cc12	99.5
Cc1noc(-c2ccccc2)c1NC(=O)Nc1ccccc1	99.0
CSc1nnc(NC(=O)/C=C\c2ccc3c(c2)OCO3)s1	99.6
S=C(NCC1CC1)Nc1ccc(Cl)cc1	79.0
COc1ccc(OC)c2[nH]c(=O)c(CCNC(=O)CC3CCCCC3)cc12	101.7
Cc1cccc(N2CCCn3c2nc2c3c(=O)n(C)c(=O)n2C)c1	103.2
CC(C)(C)C(=O)Cn1c(NCCO)nc2ccccc21	84.4
COc1cccc2c1OC[C@H]1CON(C)[C@@H]21	108.1
COCCN(C(=S)Nc1c(C)cccc1C)C(C)c1cccnc1 (stereo not drawn)	101.6
CCC(CC)C(=O)Nc1cc(C)c2c(=O)oc3ccccc3c2n1	98.4
COC(=O)c1ccccc1SC(=O)c1ccc(Cl)c(Cl)c1	108.6
C[N+]1(C2CCC3CCC2C3O)CCCCC1 (stereo not drawn)	99.3
Cc1ccc(C(=O)C2C(=O)N(c3ccccc3)C(=O)N(c3ccccc3)C2=O)cc1	97.4
CSc1ccc(Cl)c(C(=O)OCC(=O)C(C)(C)C)c1	90.7
O=C(NC1CCCCC1)c1ccc(Cn2c(=S)[nH]c3ccccc3c2=O)cc1	101.8
Cc1ccc(-c2cn3nc(N4CCC(C(=O)NCCCN5CCCCC5)CC4)sc3n2)cc1	104.0
O=C(Cc1cccs1)NCCn1ccc2ccccc21	98.9
CCOC(=O)N1CCN(C(c2ccncc2)c2c(C)[nH]c3ccccc23)CC1 (stereo not drawn)	83.2
CC1(C)CC(=O)c2c(Cc3ccccc3)n[nH]c2C1	99.7
C=CCn1c(-c2ccccc2)nc2ccccc21	100.0
CSc1nc2c(Cl)cccc2c2c1c(=O)n(Cc1ccc(Cl)cc1)n2C	111.2
CCOc1ccc(NC(=O)CCc2c(C)nc3c(c(C)nn3C(C)(C)C)c2C)cc1	98.9
Cc1ccc(CNC(=O)CSc2nc3ccccc3o2)cc1	105.9
FC(F)(F)c1nc(NCc2ccccc2)nc2c1CCCCC2	93.7
CCc1ccc(N2Cc3ccncc3C2=O)cc1	103.8
SMILES	VACV E9 pol inh
Cc1cc(C)c(C#N)c(N2C3CCC2CC(O)(c2ccc(F)cc2)C3)n1 (stereo not drawn)	96.9
CCNc1nc(C)nc2sc3c(c12)CCCC3	103.6
COc1ccc(OCc2nc(C#N)c(N3CCOCC3)o2)cc1	102.9
Fc1c(F)c(F)c(C=Nc2ccccc2N2CCOCC2)c(F)c1F	92.9
CCCCn1c2ccccc2n2cc(C(C)(C)C)nc12	95.0
O=C(NCCOc1ccccc1Cc1ccccc1)c1ccc2c3c(cccc13)CC2	92.8
N#C/C(=C\c1cc(C(F)(F)F)cc(C(F)(F)F)c1)S(=O)(=O)c1ccccc1	101.5
CC(=O)N(c1ccc(F)cc1)c1nc(-c2cc3ccccc3oc2=O)cs1	101.2
Clc1ccc2c(c1)C1C=CCC1C(c1ccccc1)N2 (stereo not drawn)	100.6
CSc1sc(Cl)c2c1/C(=N\O)CC(C)(C)C2	100.3
Nc1ccc(Br)cc1C(NCC(=O)O)c1ccccc1 (stereo not drawn)	89.1
O=C(CSc1nnnn1-c1ccccc1)N1c2ccccc2CCc2ccccc21	100.3
C=CCNC(=O)/C=C/c1ccc(C(C)C)cc1	99.8
O=C(NCCc1ccccc1)C1(S(=O)(=O)c2ccc(Cl)cc2)CC1	76.4
CC(C)c1ccc(NC(=O)CN2C(=O)C3CC=CCC3C2=O)cc1 (stereo not drawn)	99.2
CN(C(=O)CSC1=Nc2ccccc2C2=NC(c3ccccc3)C(=O)N12)C1CCCCC1 (stereo not drawn)	103.6
COc1ccccc1-c1c(C)nn2c(NCCN3CCCCC3C)cc(C)nc12 (stereo not drawn)	101.8
Cc1cc(C)cc(N2C(=O)CC(=O)NC2=S)c1	100.1
COC(=O)c1ccccc1NC(=O)c1ccc2c(c1)sc1nc(-c3ccc(OC)cc3)cn12	102.8
CC1=C(C(=O)OCC(C)C)C(c2ccc(Cl)cc2)NC(=O)N1C (stereo not drawn)	98.1
O=c1c2c3c(sc2[nH]c(=S)n1Cc1ccccc1)CCC3	100.2
O=C(Nc1ccc2sccc2c1)c1ccco1	93.7
c1ccc(CSc2ccc(-c3ccncc3)nn2)cc1	96.9
CCc1ccc(N=Cc2c[nH]c3ccccc23)cc1	99.4
Cc1ccc(C(=O)Sc2nc(N)c(C#N)cc2C#N)c(C)c1	99.8
SMILES	VACV E9 pol inh
Cc1cccc(OCCn2c(-c3cccc(C)c3)nc3ccccc32)c1	90.4
Cc1ccccc1-n1c(SCC(=O)c2ccc(Cl)cc2)nc2[nH]ncc2c1=O	99.6
CC(C)(C)c1ccc2c(c1)NC(=O)CO2	109.2
Cc1cc(Nc2ccccc2)n(CCO)n1	90.1
CC1CC(Nc2ccccc2)c2ccccc2N1S(=O)(=O)c1ccc(Br)cc1 (stereo not drawn)	100.0
O=S(=O)(c1ccc(-c2csc(=Nc3ccccc3)n2CCc2ccccc2)cc1)N1CCCC1	100.9
CSC1=NC(C)(C)C=C(C)N1	92.1
N#CC(CO)(Cc1ccccc1)c1nc2ccccc2[nH]1 (stereo not drawn)	106.2
CSc1nc(C)nc(Sc2ccccc2)c1C#N	81.2
CS/C(=N\S(=O)(=O)c1ccccc1)N1CCCC1	87.8
CSc1nc2n(n1)C(c1ccccc1)C=C(C)N2 (stereo not drawn)	100.4
CN1C[C@H](C(=O)N[C@]2(C)O[C@@]3(O)[C@@H]4CCCN4C(=O)[C@H](Cc4ccccc4)N3C2=O)C[C@@H]2c3cccc4[nH]cc(c34)C[C@H]21	100.1
FC(F)(F)c1cc(Br)ccc1/C=C/c1noc(CN2CCSCC2)n1	100.3
CCN1CCc2c(OCC(=O)N3CCCc4ccccc43)cccc2C1=O	100.7
CCN(CC)CCNC1CCN(C)CC1	100.0
CC(c1ccccc1)C1CC(=O)N(Cc2ccco2)C1=O (stereo not drawn)	97.7
CC1CN(C(=O)COC(=O)C23CC4CC(CC(C4)C2)C3)CC(C)O1 (stereo not drawn)	98.5
O=C(O)CSc1nc2cc(Cl)ccc2n1Cc1ccccc1	86.1
O=C(c1csc2c1CCCC2)N1CCCCC1	92.1
Fc1ccc(C2=NN(C(=S)NCc3ccccc3)CCC2)cc1	98.9
Cc1sc(NC(=O)CSCC(=O)N2CCCCC2)nc1-c1ccccc1	100.7
CCCn1c2ccccc2c2nnc(SCC(=O)NC(C)c3ccccc3)nc21 (stereo not drawn)	99.3
Cc1ccc(C(=O)CC(NCCc2c[nH]c3ccccc23)C(=O)O)cc1 (stereo not drawn)	100.9
O=C(O)CCC(=O)Nc1cccc(-c2nc3ccccc3[nH]2)c1	99.4
CCCC(=O)n1c(=S)oc2cc(Cl)ccc21	100.3

Ten compounds drawn at random from the list so far:
SMILES	VACV E9 pol inh
CCCCn1c2ccccc2n2cc(C(C)(C)C)nc12	95.0
CSC1=NC(C)(C)C=C(C)N1	92.1
O=C(O)CCC(=O)Nc1cccc(-c2nc3ccccc3[nH]2)c1	99.4
COc1ccc(OC)c2[nH]c(=O)c(CCNC(=O)CC3CCCCC3)cc12	101.7
CC1CN(C(=O)COC(=O)C23CC4CC(CC(C4)C2)C3)CC(C)O1 (stereo not drawn)	98.5
CCCn1c2ccccc2c2nnc(SCC(=O)NC(C)c3ccccc3)nc21 (stereo not drawn)	99.3
COC(=O)c1ccccc1NC(=O)c1ccc2c(c1)sc1nc(-c3ccc(OC)cc3)cn12	102.8
O=C(c1csc2c1CCCC2)N1CCCCC1	92.1
O=C(NCCc1ccccc1)C1(S(=O)(=O)c2ccc(Cl)cc2)CC1	76.4
CC1(C)CC(=O)c2c(Cc3ccccc3)n[nH]c2C1	99.7

A second format for 6 compounds above.
SMILES | VACV E9 pol inh
CC(C)(C)c1ccc2c(c1)NC(=O)CO2 | 109.2
Cc1cc(Nc2ccccc2)n(CCO)n1 | 90.1
CC1CC(Nc2ccccc2)c2ccccc2N1S(=O)(=O)c1ccc(Br)cc1 (stereo not drawn) | 100.0
O=S(=O)(c1ccc(-c2csc(=Nc3ccccc3)n2CCc2ccccc2)cc1)N1CCCC1 | 100.9
CSC1=NC(C)(C)C=C(C)N1 | 92.1
N#CC(CO)(Cc1ccccc1)c1nc2ccccc2[nH]1 (stereo not drawn) | 106.2

(further entries)
SMILES	VACV E9 pol inh
O=C(/C=C/c1cccs1)NC(=S)NCc1ccccc1	98.6
COc1cccc(CNc2ccc3c(c2)ncn3C2CCCCC2)c1	98.1
OC1CSC(=S)N1Cc1ccco1 (stereo not drawn)	99.9
CCc1cccc(NC(=O)C(CC(C)C)NC(=O)C2CCCCC2)c1 (stereo not drawn)	88.1
CC(C)[C@@H](C)/C=C/[C@@H](C)C1CC[C@H]2/C(=C/C=C3\C[C@@H](O)CC[C@@H]3C)CCC[C@]12C (stereo partly drawn)	100.0
Cc1ccc(OCCN2CCN(c3cc(C)c(C#N)c4nc5ccccc5n34)CC2)cc1	100.0
CSC(=NCCc1ccc(Cl)cc1)NS(=O)(=O)c1ccccc1	105.8
O[C@H]1[C@H]2c3cc4c(cc3CN3CCC(=C[C@@H]1O)[C@H]23)OCO4	99.9
O=S(=O)(Nc1ccc(-c2ccno2)cc1)c1ccc(-n2cccn2)cc1	93.4
FC(F)(F)c1c[nH]c(=S)c(C(F)(F)F)c1	98.9
OCc1noc(-c2ccc(Cl)c(Cl)c2)n1	90.4
COc1cccc2c1N(C(C)=O)C1CC(C)CCC1C2(C)C (stereo not drawn)	99.2
Cc1cc(C[n+]2nc(-c3ccccc3)sc2N)c2ncccc2c1	94.0
O=C(CSc1nc2ccccc2[nH]1)Nc1ccc(Br)cc1F	102.5
O=C(/C=C/C(=O)c1ccc2ccccc2c1)c1ccccc1	98.1
COc1ccccc1CNC(=O)c1ccc2c(=O)nc3c(-c4ccccc4)n[nH]n3c2c1	100.9
C=C(C)Cn1c(SCC(=O)O)nnc1-c1ccc(OC)cc1	99.3
COc1ccccc1-c1cc(C(=O)NCc2ccc(F)cc2)no1	100.4
Cc1cccc(CCNS(=O)(=O)c2cnc[nH]2)c1	101.7
CNN1C(=O)c2cccc3cccc(c23)C1=O	63.6*
CCOC(=O)c1ccc(Oc2nc(NC(C)(C)C)nc(N(C)C)n2)cc1	100.2
C/C(=N\N)c1c(-c2ccccc2)c2cc(C)ccc2[nH]c1=O	99.8
CC(C)NC(=O)c1cc2n(n1)C(C(F)(F)F)CC(c1cccs1)N2 (stereo not drawn)	99.9
O=C(OCc1nc2ccccc2[nH]1)C12CC3CC(CC(C3)C1)C2	99.9
CCOc1ccccc1NC(=O)N1CCOc2ccc(C)cc21	99.0
SMILES	VACV E9 pol inh
CC(Cc1ccccc1)N/C=C1/CC(=O)NC1=O (stereo not drawn)	100.0
O=S(=O)(c1ccc(OC(F)(F)F)cc1)N1CCNCC1	99.0
CCOC(=O)c1csc(NC(=O)c2ccccc2OC)n1	95.6
O=C(Cc1ccccc1)NCCN1CCOCC1	100.0
COC(CNC(=O)c1cc2c(s1)-c1ccccc1OC2)OC	92.1
C(=Nc1ccccc1)c1ccccc1	102.4
COC(=O)c1cn(NC(=O)/C(C)=C/c2ccccc2)c(=O)c2ccccc12	92.4
Cc1cc(C)cc(NC(=O)CN2C=NS(=O)(=O)c3ccccc32)c1	101.7
O=C(CSc1ccccc1)CSc1ccccc1	96.0
CC(C)c1nnc(NC(=O)CC(NC(=O)c2ccccc2)c2ccccc2)s1 (stereo not drawn)	99.9
C=CCNc1ncnc2c1c(-c1ccccc1)cn2-c1cccc(C)c1	101.8
C[N+]1(Cc2nc3ccccc3[nH]2)CCOCC1	101.2
COc1ccc(-c2nnc(SC3CCOC3=O)o2)cc1 (stereo not drawn)	105.9
O=S(=O)(c1ccc(C2CCCCC2)cc1)N1CCn2c(nc3ccccc32)C1	92.3
CC(C)C(NS(=O)(=O)c1cccc2nsnc12)C(=O)NCc1ccco1 (stereo not drawn)	77.3
COc1ccc(-c2cc(C(N)=O)c3ccccc3n2)cc1	99.5
CCC1(c2ccccc2)NC(=O)N(C)C1=O (stereo not drawn)	99.4
CCOc1ccccc1CNC1CC(C)(C)NC(C)(C)C1	94.9
COc1cc(NS(=O)(=O)c2c(C)oc3c(F)c(F)c(F)c(F)c23)cc(OC)c1OC	100.3
Cc1ccc(Cc2ccc(Cl)nn2)cc1	82.2
CC1CN(C(c2ccccc2)c2sc3ncnn3c2O)CC(C)O1 (stereo not drawn)	106.1
CC1CCCC(NC(=O)C2CCN(C(=O)N(C)C)CC2)C1C (stereo not drawn)	97.5
N#Cc1cc(Oc2ccc(F)cc2)c(-n2nnc3ccccc32)cc1C#N	97.8
CC(C)(C)NC(=O)Nc1cnccc1C(F)(F)F	88.4
COc1ccc(/C(C#N)=C/C(=O)O)cc1	121.9
SMILES	VACV E9 pol inh
CCCCN(C)C(=O)Nc1cn(C)c(=O)c2ccccc12	103.4
O=S(=O)(NCCNC/C=C/c1ccc(Br)cc1)c1cccc2cnccc12	89.1*
O=C(COc1ccc2c(-c3ccccc3)cc(=O)oc2c1)c1ccccc1	100.5
CC(C)(C)NC(=O)c1cc(S(=O)(=O)N2CCCCC2)ccc1Cl	101.5
Cc1cc2c(cc1C)NC(C(F)(F)F)=CC(c1cccs1)=N2	100.5
COc1cc(Cc2nnc(C(=O)NC(C)C)o2)cc(OC)c1OC	101.6
Cc1ccc(CCNC(=O)c2cc3c(=O)oc4ccc(C)cc4c3s2)cc1	102.9
CCCCn1cnc2cc(NCc3ccc(Br)cc3)ccc21	99.7
COC(CNC(=O)c1ccc2nc(-c3ccccc3)c(-c3ccccc3)nc2c1)OC	86.4
O=C(OCC(=O)N1CCCCC1)c1ccc(Br)o1	100.3
COc1ccccc1CCNC(=O)c1ccc(COc2ccccc2Cl)o1	94.6
COc1ccccc1C1CCN(S(=O)(=O)c2ccccc2Br)CC1	94.6
O=C(c1ccncc1)N(c1ccccc1)c1ccccc1	99.5
CCOC(=O)c1ccc2[nH]c3c(c2c1)CCCC3NC=O (stereo not drawn)	100.4
Cc1ccc(C(=O)c2nsc(Cl)c2Cl)cc1	100.1

Screens: PubChem, ICCB-Longwood Screening Facility, Harvard Medical School
